# Source: PubChem
# PINK1 modulator: A Quantitative High throughput Screen to Identify Chemical Modulators of PINK1 Expression; hit rate 0.2% among 410,000; PINK1 immunofluorescence, high-content cytometry, 24 h; Potency, µM (titrated, usually from 76.6 µM), for the others: at the top dose activation (PINK1 increase), usual class: activators; active = well fitted activation curve with a large enough effect; inconclusive = small, poorly fitted or top-dose-only effect; inactive = flat fitted curve, though single readings scatter; cell line not stated here;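 further: potency means the concentration at half of the fitted maximal effect; % of control where 0% means no effect; nearly all actives have a fitted effect of over 65% in size; a mitochondrial uncoupler was the plate control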
#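 PINK1 protein level read as immunofluorescence by microplate cytometer in a fixed, stained stable cell line after 24 h exposure to five compound concentrations, with CCCP as control.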
# TRPV1 potentiator: HTS Assay for Compounds that Act as Potentiators of the Vanilloid Receptor 1; potentiation, % at 8.33 µM; AID 540277, 2011; TRPV1-expressing cells, Fluo-8 calcium influx, capsaicin EC20 potentiation; host cell line not named in the record; control for the full effect not named in the record; hit rate 0.02% among 320,000; Transient receptor potential cation channel subfamily V member 1 (Homo sapiens), Q8NER1; active means potentiation above 80%; inconclusive means 30% to 80%; inactive means below 30%; further: 0% is about no effect
#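 TRPV1-expressing cells were cultured overnight at 35.5C and loaded with Fluo-8 calcium dye for 40 to 90 min at room temperature. After a 10 s baseline, compound was added and calcium influx was read kinetically for 3 min (ex 480/em 520 nm).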
# Sfp inh: qHTS Assay for Inhibitors of Bacillus subtilis Sfp phosphopantetheinyl transferase (PPTase); Biochemical Sfp PPTase activity, qHTS; Potency, µM, inactives show max response, negative = inhibition, actives largely listed as inhibitors; hit rate 3.5% among 310,000; 4'-phosphopantetheinyl transferase ffp (Bacillus subtilis), Q9F4F7; active means well fitted inhibition curve with a large enough effect; inconclusive means small, poorly fitted or top-dose-only effect, or another doubt; inactive means no such curve, though single readings can be large or run the other way;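 further: the enzyme is Sfp with the accession as filed and its product quenches rhodamine fluorescence; potency means the concentration at half of the fitted maximal effect; 0% = enzyme reaction without inhibitor and -100% = no enzyme wells; top concentration of the series not given in the record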
#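 Buffer: 50 mM Hepes-Na pH 7.6, 10 mM MgCl2, 0.01% Nonidet P-40, 0.01% BSA. Enzyme 15 nM, pre-exposed to compound 15 min; substrates then added and fluorescence change tracked over 30 min.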
# D2 potentiator: Beta-Arrestin HTS for Positive Allosteric Modulators of the Human D2 Dopamine Receptor: Potentiators; D(2) dopamine receptor (Homo sapiens), P14416; DiscoveRx D2 beta-arrestin cells, luminescence, 90 min; 100% = 57 uM dopamine signal; potentiation, % (test concentration not listed); hit rate 0.23% among 360,000; AID 624464, 2012; active = potentiation of 50% or more; inconclusive = 30% to 50%; inactive = 30% or less;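 further: compound concentration not given in the record; tested on top of an EC20 dose of dopamine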
#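 D2 cells co-treated with compound plus 50 nM dopamine (EC20) for 90 min at 37 deg C to detect potentiation. Beta-arrestin recruitment was read as enzyme-fragment luminescence after 1 h at ambient temperature. Full response was set by 57 uM dopamine.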
# D2 ag: Beta-Arrestin HTS for Positive Allosteric Modulators of the Human D2 Dopamine Receptor: Agonists. D(2) dopamine receptor (Homo sapiens), P14416. DiscoveRx PathHunter D2 beta-arrestin, luminescence, 90 min; 100% = 57 uM dopamine signal. activation, % (test concentration not listed). hit rate 0.084% among 360,000. AID 624465, 2012; in the data active = activation above about 40%; inconclusive = about 15% to 40%; inactive = below about 15%; further: compound concentration not given in the record; the text of the record calls up to 30% inactive
#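 DiscoveRx PathHunter D2 beta-arrestin cells (2,100/well) attached overnight, then compound-stimulated 90 min at 37 C in HBSS/10 mM HEPES/0.1% Tween-20 buffer; beta-galactosidase complementation read by luminescence after 1 h at ambient temperature. Dopamine 57 uM final (EC100) as control.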
# CtBP-E1A inh: qHTS Assay for Inhibitors of the CtBP/E1A Interaction; AID 651724, 2012; activity change, % (no concentration beside the values); CtBP / adenovirus E1A interaction (AlphaScreen); AlphaScreen GST-E1A/His-CtBP binding, 1536-well; hits give low values; control for the full effect not named in the record; hit rate 0.49% among 340,000; in the data active means activity change below about -65%; inconclusive means about -30% to -65%; inactive means above about -30%; further: on the % scale 0 is the no-effect control and ±100 the full control effect; compound concentration not given in the record
#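 GST-E1A and His-tagged CtBP (125 nM each as 5X stock) were preincubated with pin-transferred compound for 2 h at 37 °C in the dark, then glutathione donor and nickel acceptor beads were added for 1 h before AlphaScreen reading.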
# Six1-Eya2 inh: qHTS Assay for Inhibitors of the Six1/Eya2 Interaction. hit rate 0.56% among 360,000. AID 651725, 2012. activity change, % (no concentration beside the values). Homeobox protein SIX1 (Homo sapiens) + Protein phosphatase EYA2 (Homo sapiens), …. AlphaScreen GST-Six1/His-Eya2 binding, biochemical; hits give low values; control for the full effect not named in the record; in the data active = activity change below about -65%; inconclusive = about -30% to -65%; inactive = above about -30%; further: on the % scale 0 is the no-effect control and ±100 the full control effect; compound concentration not given in the record
# Target sequence (O00167 whole entry, looked up): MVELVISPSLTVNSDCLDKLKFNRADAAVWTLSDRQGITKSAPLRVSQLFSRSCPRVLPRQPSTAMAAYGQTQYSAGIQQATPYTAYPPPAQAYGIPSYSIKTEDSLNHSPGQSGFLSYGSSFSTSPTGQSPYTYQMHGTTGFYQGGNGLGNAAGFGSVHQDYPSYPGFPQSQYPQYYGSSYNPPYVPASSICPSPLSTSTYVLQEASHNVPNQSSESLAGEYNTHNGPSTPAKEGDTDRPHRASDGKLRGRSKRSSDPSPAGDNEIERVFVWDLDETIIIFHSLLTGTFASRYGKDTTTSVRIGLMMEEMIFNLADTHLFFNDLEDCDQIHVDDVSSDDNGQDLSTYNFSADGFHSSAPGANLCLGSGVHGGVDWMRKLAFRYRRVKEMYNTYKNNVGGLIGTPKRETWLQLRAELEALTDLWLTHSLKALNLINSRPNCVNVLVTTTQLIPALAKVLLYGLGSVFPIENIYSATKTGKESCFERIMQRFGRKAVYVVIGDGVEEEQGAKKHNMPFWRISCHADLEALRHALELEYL
# Target sequence (Q15475 whole entry, looked up): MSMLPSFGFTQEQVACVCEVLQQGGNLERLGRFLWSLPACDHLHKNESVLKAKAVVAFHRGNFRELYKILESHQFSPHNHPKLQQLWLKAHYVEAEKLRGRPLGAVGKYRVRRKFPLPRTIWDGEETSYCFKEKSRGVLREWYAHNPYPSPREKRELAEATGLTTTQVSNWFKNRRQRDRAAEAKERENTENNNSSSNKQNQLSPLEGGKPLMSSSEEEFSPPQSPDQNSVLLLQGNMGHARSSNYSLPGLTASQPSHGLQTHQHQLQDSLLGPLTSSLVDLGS
#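 Compounds are tested against tagged Six1 and Eya2 proteins bridged by glutathione donor and nickel acceptor beads; after a one-hour incubation at 37 °C without light, AlphaScreen emission is recorded.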
# Active calls of the source: *; ? = inconclusive; · = not tested or not shown; & = joins results of further samples.
smiles,Sfp inh,PINK1 modulator,D2 potentiator,D2 ag,TRPV1 potentiator,CtBP-E1A inh,Six1-Eya2 inh
COc1cc(/C=N/NC(=O)c2ccncc2)ccc1OC(=O)c1cccc(Br)c1,-20%,-0.3%,4,9.8,-3,-8,-4
COc1ccc(NC(=O)/C(Cl)=C(/Cl)S(=O)Cc2ccccc2Cl)cn1 (centres undefined),22µM*,-1.7%,-29,-6.6,-5,-10,-26
CCOC(=O)c1c(CNc2ccncc2)n(C)c2cc(Br)c(O)cc12,12%,1.9%,-15,-6.1,8,·,-15
COc1ccc(CNC(=O)C[C@H]2C(=O)N(C3CCCCC3)C[C@@H]2Cc2ccccc2)cc1,9%,3.9%,0,-1.2,-15,-6,0
CCN1CCN(c2ccc(NC(=O)c3ccc(F)cc3)cc2Cl)CC1,10%,-0.7%,-10,-4.9,-21,1,-1
O=C(/C=C/c1cccs1)NCc1ccc2c(c1)OCO2,-1%,1.7%,-5,-0.7,-4,-14,-17
CCc1ccc(OCC2Cn3c(nc4c3c(=O)[nH]c(=O)n4C)O2)cc1 (centres undefined),12%,1.3%,1,0.8,20,·,-2
CC(Sc1nc(-c2ccc(F)cc2)cs1)C(=O)Nc1ccc(Cl)cn1 (centres undefined),-2%,-1.7%,-7,-5.6,-8,5,12
CCC(C)c1ccc(NC(=S)N2CCN(S(C)(=O)=O)CC2)cc1 (centres undefined),14%,0.4%,-13,-2.3,0,3,2
Cc1ccc(C(c2nnnn2C2CCCC2)N2CCN(c3nc4ccccc4s3)CC2)cc1 (centres undefined),·,0.2%,-16,-3.5,·,-6,-8
COc1cc(C(=O)NNC(=O)CCOc2ccccc2)cc(OC)c1OC,·,-1.3%,-10,-2.2,·,0,21
Cc1sc2ncnc(SCC(=O)NC3CCCC3)c2c1C,11%,-1.4%,-1,-2.5,11,-7,-2
CC(=O)c1cc(C#N)c(N(C)Cc2ccccc2)nc1C,5%,2.1%,-3,-1.0,-9,8,3
N#C/C(=C\c1cn(Cc2ccccc2F)c2ccccc12)C(=O)NCc1ccco1,9%,14%,-4,1.7,7,2,-1
COc1ccccc1CCNC(=O)C(=O)NCC1OCCN1S(=O)(=O)c1cc(F)ccc1F (centres undefined),11%,2.7%,-1,-0.4,6,2,1

# Brought forward from above: two entries, then new ones.
smiles,Sfp inh,PINK1 modulator,D2 potentiator,D2 ag,TRPV1 potentiator,CtBP-E1A inh,Six1-Eya2 inh
N#C/C(=C\c1cn(Cc2ccccc2F)c2ccccc12)C(=O)NCc1ccco1,9%,14%,-4,1.7,7,2,-1
COc1ccccc1CCNC(=O)C(=O)NCC1OCCN1S(=O)(=O)c1cc(F)ccc1F (centres undefined),11%,2.7%,-1,-0.4,6,2,1
O=C(Cn1ncn2nc(-c3ccccc3)cc2c1=O)NCc1ccccn1,11%,1.4%,-14,-3.7,-13,-10,-7
CCC(CC)Nc1ccc(C(CC(N)=O)NC(=O)Cc2ccc(Br)cc2)cc1[N+](=O)[O-] (centres undefined),2%,?,1,-1.8,5,3,-1
COc1cccc(N(C(=O)Cn2nnc(-c3cccs3)n2)C(C(=O)NC2CCCCC2)c2ccncc2)c1 (centres undefined),7%,3.5%,-7,-1.6,4,-5,5
Cc1cc(NC(=O)CN2CCCCC2C)no1 (centres undefined),-27%,-1.1%,-7,-3.6,27,1,6
O=S(=O)(c1cccc(C(F)(F)F)c1)N1CCC(O)(c2cccnc2)CC1,16%,0.2%,-5,0.5,13,0,7
Cn1c(SCC(=O)NC2CCCCC2)nnc1-c1ccccn1,6%,1.3%,-3,2.1,7,-2,-6
CC(=O)N(CN1C(=O)c2ccccc2C1=O)c1cccc(C)c1,15%,1.6%,-17,-1.5,13,-2,11
CC(C)CNC(=O)C1(C)CCCCCN1C(=O)c1csnn1 (centres undefined),·,0.4%,-6,-5.5,·,2,0
Clc1ccc(-c2nnc(C3CCCCC3)o2)cc1,5%,-0.7%,-15,-1.0,-6,10,4
O=C(O)CCCC(=O)Nc1ccc(-n2ccc(C(F)(F)F)n2)cc1,5%,0.8%,-11,-0.9,0,·,7
CCC(C)NC(=O)CCC(=O)NNc1nc2ccccc2c2nc(C)nn12 (centres undefined),20%,1.0%&0.9%,-5,1.0,6,7,-9
CCCOc1ccc(CNC(=O)Cc2cccs2)cc1,4%,1.6%,-5,-2.8,-5,6,5
O=C(O)c1cc([N+](=O)[O-])ccc1N1CCC(Cc2ccccc2)CC1,26%,1.5%,-12,-5.1,0,-9,-2
CCCCc1c(C)nc2cc(-c3ccco3)[nH]n2c1=O,5%,-0.2%,-3,-0.8,-1,-22,-26
CN(c1ccccc1C(N)=O)S(=O)(=O)c1ccccc1,4%,-1.6%,-21,-1.3,-5,1,8

# The list continues:
smiles,Sfp inh,PINK1 modulator,D2 potentiator,D2 ag,TRPV1 potentiator,CtBP-E1A inh,Six1-Eya2 inh
COc1ccc(S(=O)(=O)N2CCN(CC(=O)c3[nH]c(C)c(C(C)=O)c3C)CC2)cc1OC,·,17%,8,1.0,1,0,-2
Cc1cc(Nc2ccccc2C(=O)O)nc2nc3ccccc3c(=O)n12,-4%,0.1%,-1,0.7,-5,-9,-1
Cc1ccc(-n2nc(C)c3c(C)c(CCC(=O)O)c(C)nc32)cc1,-10%,0.4%,-2,3.8,-15,2,-22
N#Cc1c(N2CCOCC2)nsc1-c1ccccc1,3%,-0.3%,-5,-6.4,-6,6,15
C/C(=N/Oc1nc(C)cc(C)n1)c1ccc(F)cc1,-1%,1.7%,-9,-0.7,5,-2,11
COc1cc(-c2cc3nc(NCCc4ccncc4)ccn3n2)cc(OC)c1OC,·,3.3%,4,?,·,-12,-21
COc1ccc(NC(=O)C2(C)Cc3c(-c4ccc(N(C)C)cc4)ccnc3O2)cc1OC (centres undefined),·,4.1%,-7,-5.3,·,-18,-6
C=C1CSc2nc(=O)c3c(C)c(C)sc3n21,4%,0.3%,-3,0.0,-3,?,?
CCOc1ccc(C(=O)NCC(=O)OCC(=O)Nc2nnc(-c3ccccc3)o2)cc1,·,-0.2%,-3,-7.8,1,-16,-10
COc1ccccc1CNc1nc(NCc2ccc(NC(C)=O)cc2)c2sccc2n1,·,0.4%,-11,-4.6,·,10,7
O=C(CSc1nnc(CNC(=O)c2c(F)cccc2F)o1)Nc1ccc2c(c1)OCO2,15%,2.9%,-11,-1.0,2,-1,1
CN1CCCN(C(=O)c2cc(=O)[nH]c3ccccc23)c2nc3ccccc3nc21,6%,1.0%,-18,1.0,6,3,3
O=[N+]([O-])c1cc(-c2ccc(/C=N/n3cnnc3)o2)ccc1Cl,-7%,-1.1%,28,-3.2,-11,·,-8
COc1cc(NC(=O)c2ccc(-c3cnn(C)c3)c3ccoc23)cc(OC)c1OC,·,1.0%,-8,?,·,0,6
CCOc1ccc2oc(C(=O)N(CC)CC(=O)Nc3c(F)cccc3F)c(C)c2c1,·,3.8%,-3,-3.1,15,4,-1

# Four entries from above, as labelled records.
Molecule: COc1cc(-c2cc3nc(NCCc4ccncc4)ccn3n2)cc(OC)c1OC
  Sfp inh = · | PINK1 modulator = 3.3% | D2 potentiator = 4 | D2 ag = ? | TRPV1 potentiator = · | CtBP-E1A inh = -12 | Six1-Eya2 inh = -21

Molecule: COc1ccc(NC(=O)C2(C)Cc3c(-c4ccc(N(C)C)cc4)ccnc3O2)cc1OC (centres undefined)
  Sfp inh = · | PINK1 modulator = 4.1% | D2 potentiator = -7 | D2 ag = -5.3 | TRPV1 potentiator = · | CtBP-E1A inh = -18 | Six1-Eya2 inh = -6

Molecule: C=C1CSc2nc(=O)c3c(C)c(C)sc3n21
  Sfp inh = 4% | PINK1 modulator = 0.3% | D2 potentiator = -3 | D2 ag = 0.0 | TRPV1 potentiator = -3 | CtBP-E1A inh = ? | Six1-Eya2 inh = ?

Molecule: CCOc1ccc(C(=O)NCC(=O)OCC(=O)Nc2nnc(-c3ccccc3)o2)cc1
  Sfp inh = · | PINK1 modulator = -0.2% | D2 potentiator = -3 | D2 ag = -7.8 | TRPV1 potentiator = 1 | CtBP-E1A inh = -16 | Six1-Eya2 inh = -10

# (further entries)
smiles,Sfp inh,PINK1 modulator,D2 potentiator,D2 ag,TRPV1 potentiator,CtBP-E1A inh,Six1-Eya2 inh
CCCCSc1nc2sc3c(c2c(=O)n1-c1ccc(C)cc1)CCN(C)C3,-25%,11%,-9,-5.0,12,6,-9
Cc1cc(C)n(CCCN2C(=O)c3cccc4cccc(c34)C2=O)n1,14%,0.9%,-2,2.4,11,-1,-5
CN1CCN(C2=C(Cl)C(=O)N(c3ccc(Cl)c(Cl)c3)C2=O)CC1,4%,-0.7%,-7,-2.5,-3,-1,5
COc1ccc(C(=O)C2CCCN(C(=O)CCc3scnc3C)C2)c(C)c1 (centres undefined),13µM*,-0.2%,2,0.9,-13,3,0
CC(=O)C1=C(O)C(=O)N(Cc2ccccc2)C1c1ccccc1F (centres undefined),16%,0.5%,-15,-1.3,-2,0,-6
COC/C=C/C1=CC2=CC(=O)C(C)(OC(=O)c3cnc4ccccc4n3)C(=O)C2=CN1c1ccc(OC)cc1 (centres undefined),0%,-0.9%,-5,2.1,·,-3,-14
CC(=O)c1ccc(NC(=O)N2CCN(c3cccc(Cl)c3)CC2)cc1,-1%,2.9%,-4,3.4,2,3,-3
Cn1c(=O)cc(OCCCC(=O)NCc2cccnc2)c2ccccc21,16%,-1.6%,0,3.7,16,3,1
CC[C@H]1OC(=O)[C@H](C)[C@@H](O[C@H]2C[C@@](C)(OC)[C@@H](O)[C@H](C)O2)[C@H](C)[C@@H](O[C@@H]2O[C@H](C)C[C@H](N(C)C)[C@H]2O)[C@](C)(O)C[C@@H](C)C(=O)[C@H](C)[C@@H](O)[C@]1(C)O,6%,-0.8%,-4,-1.7,12,-12,-4
Cc1ccc2c(c1)N(C(C)C(=O)NCc1ccc3c(c1)OCO3)C(=O)CO2 (centres undefined),1%,-0.1%,-3,5.5,-8,-9,5
Nc1cc(S(=O)(=O)N2CCCCC2)ccc1Oc1ccccc1,0%,-1.6%,-18,6.6,7,·,-8
